# S aureus helic = blocks Staphylococcus aureus DNA helicase. inhibition, %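 (tested at about 80 µM)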. actives 0.05% (n = 120,000). AID 485395. purified S. aureus helicase, fluorescence unwinding assay; about half of the hits fall short of the stated cut;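 active = both duplicates at 50% or more, or one of them with a favoured structure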;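 also: 0% = mean of negative control wells and 100% = mean of positive control wells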
# MgrA DNA FP = modulators of Staphylococcus aureus MgrA DNA binding; AID 602314; fluorescence polarization; actives 0.13% (n = 84,000); inhibition, %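 (about 10 µg/mL by stock and volumes)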;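 active = above 50% in either of two replicates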;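 also: 0% = protein plus DNA without compound and 100% = DNA alone without protein; higher means less MgrA bound to DNA so lower polarization; one replicate is shown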
# Starred values were filed as active, the others as inactive; nt = not tested or not shown.
SMILES,S aureus helic,MgrA DNA FP
COc1ccc(/C=C2\SC(=Nc3cc(C)cc(C)c3)NC2=O)c(OC)c1,nt,-1.0
CCN1C(=O)C2(c3ccccc31)c1c(oc3ccccc3c1=O)C(=O)N2CCCOC (centres undefined),-12,nt
Oc1ccc2c(c1)[nH]c1ccccc12,3,nt
Oc1ccc(CCc2n[nH]c(=S)n2CCc2ccccc2)cc1,nt,1.3
Cc1ccccc1-c1nnc2s/c(=C\c3ccccc3)c(=O)n12,8,nt
O=C(/C=C/c1ccccc1)N1CCCCC1c1cccnc1 (centres undefined),2,-3.3
Cc1ccc(NC(=O)c2cc3ccccc3c([N+]#N)c2[O-])cc1,13,3.0
Cc1nn(-c2ccccc2)nc1CNS(C)(=O)=O,1,nt
O=C(C1CCCCC1)N1CCN(c2nnc(-c3ccccc3)c3ccccc23)CC1,15,2.5
N/C(=N\O)C1(c2ccc(Cl)cc2Cl)CC1,nt,0.6
COc1ccc(NC(=O)C2CCN(Cc3cnn(-c4ccccc4)c3-n3cccc3)CC2)cc1OC,15,nt
COc1ccccc1-c1nc(-c2cccc(Br)c2)no1,1,3.1
CCCN(CCC)c1c(Cl)c(Cl)nc(C(=O)O)c1Cl,-6,nt
COc1ccc(-n2cnc3cc(NCc4ccccc4O)ccc32)cc1,11,4.2
COCCn1c(N)c(C(=O)c2cccc(S(=O)(=O)N3CCCCCC3)c2)c(=O)[nH]c1=O,-8,nt
CCN(CC)Cc1c(O)ccc2c(C)cc(=O)oc12,-30,nt
Cc1ccc(S(=O)(=O)NCCC(=O)NC2CCCCC2)cc1,-12,-1.9
CCOC(=O)c1c(NC(C)=O)c2c3c(sc2n1Cc1ccccc1Cl)CCCC3,-21,nt
Cc1onc(-c2c(F)cccc2Cl)c1C(=O)N(CCO)CCO,-3,nt
Cc1c(COC(=O)c2ccccc2)sc2ccccc12,nt,3.7
CCOC(=O)c1cc(=O)c2ccc(OC(=O)c3sc4ccccc4c3Cl)cc2o1,nt,2.5
Cc1noc(C)c1CSc1ncnc2sccc12,7,nt
O=C(CN1CCN(c2ccccc2)CC1)Nc1nnc(C2CCCCC2)s1,36,1.2
COc1ccc(NC(=O)C2(N(C(=O)Cn3nnnc3N)c3ccc(OC)cc3)CCCCC2)cc1,15,3.8
Cc1cc(C(F)(F)F)c(C#N)c(SCC(=O)c2ccc([N+](=O)[O-])cc2)n1,nt,-1.5
SMILES,S aureus helic,MgrA DNA FP
Cn1nccc1-c1cc(Cl)cc(Cl)c1O,nt,-1.5
CCCCNC(=O)C1CCCN(S(=O)(=O)CC)C1 (centres undefined),12,nt
CCOc1ccc(NC(=O)C2C3C=CC(O3)C2C(=O)O)cc1 (centres undefined),-9,-1.1
C=CCN(CC=C)Cc1c(O)ccc2c(=O)c(-c3ccccc3)coc12,-3,3.7
COc1cc(C)c(CN2CCCCC2)cc1C,-3,-1.7
O=C(COc1ccccc1F)NCC(c1ccc(F)cc1)N1CCOCC1 (centres undefined),-20,nt
Cc1ccccc1OCC1=NN2C(=N)/C(=C/c3ccc(N(C)C)cc3)C(=O)N=C2S1,-42,15
CCNC(=O)C1CCCN(c2nnc(N3CCCC3=O)s2)C1 (centres undefined),19,1.2
NC(=O)Cc1csc(N)n1,11,nt
Oc1ccc(-n2nnnc2SCc2ccc(OC(F)(F)F)cc2)cc1,nt,3.0
NS(=O)(=O)c1ccc(CCNC(=O)CCC2COc3ccccc3O2)cc1 (centres undefined),6,0.0
Cc1ccc(C(C(=O)NCc2ccccc2)N(C(=O)C2COc3ccccc3O2)c2cccc(O)c2)o1 (centres undefined),15,-2.6
O=C1NC(=S)NC(=O)C1=CN1CCCc2ccccc21,7,nt
CC1CC(C)CN(C(=O)c2cc3c(-c4ccc(Cl)cc4)nn(C)c3s2)C1 (centres undefined),-19,nt
Cc1cc2cc(CNC(=O)NC3CCCCC3)ccc2n1C,-5,nt
O=C(NC1CCN(Cc2nnnn2Cc2ccc3c(c2)OCO3)CC1)c1ccccc1F,7,2.8
CCOc1ccc(/C=C2/SC(=O)N(CNc3ccc(OC)c(Cl)c3)C2=O)cc1,nt,2.0
CC12C(=O)OC(=O)C1(C)C1CCC2O1 (centres undefined),nt,-1.8
Cn1nc(C(F)(F)F)cc1OC(=O)c1ccccc1Cl,nt,0.4
CC1(C)c2sc(=O)[nH]c2SC2C(=O)N(c3ccc(Br)cc3)C(=O)C21 (centres undefined),-17,nt
COc1ccc(NS(=O)(=O)N2CCCCC2)cc1,-13,nt
O=c1[nH]c2ccc(Br)cc2c(-c2ccccc2)c1N1CCCCC1,-16,nt
C#CC(=O)OCC(=O)Nc1ccc(C)c(C)c1,-11,nt
Cc1ccccc1-n1c(SCC(=O)Nc2ccc(F)c(Cl)c2)nnc1-c1cc2occc2n1C,14,nt
COc1nc(-c2ccc(Cl)cc2)ccc1-c1noc(COc2ccccc2)n1,9,nt
SMILES,S aureus helic,MgrA DNA FP
O=C(N/N=C/c1sc(Nc2ccccc2)nc1Cl)C1CC1,-8,nt
CCOC(=O)CSc1nnc(NC(=O)C(C)C)s1,-7,nt
N#CCn1c(=O)oc2ccccc21,-13,nt
Cc1c2cnn(CC(=O)NC3CCC(C)CC3)c(=O)c2c(C)n1Cc1ccc(F)cc1 (centres undefined),26,nt
CCOC(=O)c1sc(=S)n(C)c1C,-2,1.1
CCCNS(=O)(=O)c1cccc2cccnc12,-1,3.0
O=c1c(-c2ccc(Cl)cc2)coc2cc(OC3OC(CO)C(O)C(O)C3O)ccc12 (centres undefined),nt,1.0
Nc1ccc(Oc2cccc(Oc3ccc(N)cc3)c2)cc1,1,-3.8
O=C1CCCc2cc(S(=O)(=O)NCC3CCN(Cc4cccc(F)c4)CC3)ccc2N1,3,nt
Cc1cccc(OCCOC(=O)c2ccc(O)cc2)c1,-24,0.7
COc1ccccc1C1CCN(c2ncnc3scc(-c4ccccc4)c23)CC1,nt,-3.5
Cc1cc(C)n(C(C)C(=O)Nc2ccccc2C)c(=O)n1 (centres undefined),7,nt
CC(=O)Nc1cc2cc(NC(=O)c3ccccc3C(F)(F)F)ccc2oc1=O,nt,-2.1
CCCn1c(SCC(=O)N2CCc3ccccc3C2)nc(O)cc1=O,16,nt
COc1ccc(C(=O)OCC(=O)c2ccc(C)cc2)cc1OC,-3,1.1
O=C(Nc1ccc(-c2cn3c(n2)SCC3)cc1)c1ccc(Br)o1,2,nt
Cn1cc(SCC(=O)NC2CCCC2)c2ccccc21,2,nt
Nc1cccc2c1C(=O)N(C(=O)C1CCCN1C(=O)c1cccs1)C2=O (centres undefined),-11,nt
O=c1/c(=C\c2cccc(Cl)c2)sc2nc(-c3cccs3)nn12,-20,nt
C=CCN1C(=O)/C(=C\c2ccccc2)C(C(=O)OC)=C1C,-1,nt
CN(Cc1ccccc1)C1CCN(Cc2cc(Br)ccc2O)CC1,19,nt
O=C(/C=C/c1ccco1)N1CCC(Cc2ccccc2)CC1,7,nt
CCc1ccc(C(=O)NCc2nnc(SC)n2CC)cc1,-1,-1.6
O=C(O)c1sc2sccc2c1Cl,8,nt
O=C(NCc1ccncc1)c1cccc(Nc2nc3ccccc3n3nnnc23)c1,-33,nt

# Laid out differently: entries from further up.
# Results follow in this order: S aureus helic	MgrA DNA FP
C=CCN1C(=O)/C(=C\c2ccccc2)C(C(=O)OC)=C1C
 : -1	nt
Cn1cc(SCC(=O)NC2CCCC2)c2ccccc21
 : 2	nt
Nc1cccc2c1C(=O)N(C(=O)C1CCCN1C(=O)c1cccs1)C2=O (centres undefined)
 : -11	nt

# (further entries)
SMILES,S aureus helic,MgrA DNA FP
O=S(=O)(NCC(Sc1nnnn1-c1ccccc1)c1ccccc1)c1ccc(Cl)s1 (centres undefined),3,nt
CCOCC(=O)Nc1cc(C)on1,9,nt
COc1ccccc1-c1nnc(SCC(=O)O)n1-c1ccccc1,nt,-3.2
NC(=S)NNc1ccc(F)cc1,18,nt
Cc1ccc2c(C)nc(Nc3nccc(C)n3)nc2c1,3,16
N/C(=N\O)c1ccc(Oc2c(Cl)cncc2Cl)cc1,nt,0.2
CSc1nc2ccccc2c(=O)n1N,9,nt
C=CCSc1nc2sc3c(c2c(=O)[nH]1)CC(C)(C)OC3,3,3.8
CC(=O)Nc1ccc(C)cc1N=Cc1ccncc1,nt,-1.8
OC1CCCN(Cc2ccccc2)C1 (centres undefined),-2,2.5
CNNC(=S)Nc1ccc(Cl)cc1,7,nt
Fc1ccccc1CNC1CC1,4,1.8
O=C(Cc1cccc(C(F)(F)F)c1)Nc1nccs1,-3,nt
c1ccc(-c2csc3ncnc(NCCCN4CCOCC4)c23)cc1,13,nt
Cc1cc(C(=O)COc2ncnc3sccc23)c(C)n1-c1ccccc1,-2,nt
S=C(SCSc1nc2ccccc2s1)N1CCCCC1,5,1.2
O=C(CCc1ccccc1)Nc1cccnc1,-2,-6.4
COc1cnc(N)nc1,-10,-1.9
CCCCCCC(=O)c1ccc(Br)cc1,nt,0.2
O=C1CNC(=S)N1CC1CCCO1 (centres undefined),11,nt
CC1=C(C)CC(C(=O)c2ccc(C)cc2)C(C(=O)O)C1 (centres undefined),12,1.9
Nc1cc(=O)nc(SCC(=O)NCc2ccccc2)n1-c1ccccc1,-4,-0.2
COc1cccc(-n2cc(C(=O)N(C)c3ccccc3)c3ccccc3c2=O)c1,-15,2.5
COc1ccc(/C=C2\SC(N3CCN(C(=O)CCN4C(=O)/C(=C\c5ccc(OC)cc5)SC4=S)CC3)=NC2=O)cc1,nt,-1.1
CCCCN(Cc1ccccc1)S(=O)(=O)c1ccc2c(c1)oc(=O)n2CC(=O)OCC,9,-0.8

# Compounds from the list above that have bromine:
SMILES,S aureus helic,MgrA DNA FP
COc1ccccc1-c1nc(-c2cccc(Br)c2)no1,1,3.1
CC1(C)c2sc(=O)[nH]c2SC2C(=O)N(c3ccc(Br)cc3)C(=O)C21 (centres undefined),-17,nt
O=c1[nH]c2ccc(Br)cc2c(-c2ccccc2)c1N1CCCCC1,-16,nt
O=C(Nc1ccc(-c2cn3c(n2)SCC3)cc1)c1ccc(Br)o1,2,nt
CN(Cc1ccccc1)C1CCN(Cc2cc(Br)ccc2O)CC1,19,nt
CCCCCCC(=O)c1ccc(Br)cc1,nt,0.2

# 4 entries from above, sorted by their value in S aureus helic, largest number first:
SMILES,S aureus helic,MgrA DNA FP
NC(=S)NNc1ccc(F)cc1,18,nt
CCCCN(Cc1ccccc1)S(=O)(=O)c1ccc2c(c1)oc(=O)n2CC(=O)OCC,9,-0.8
O=S(=O)(NCC(Sc1nnnn1-c1ccccc1)c1ccccc1)c1ccc(Cl)s1 (centres undefined),3,nt
COc1cnc(N)nc1,-10,-1.9

# Next part.
SMILES,S aureus helic,MgrA DNA FP
CCCN1C(=O)/C(=N\OCc2nnc(-c3cccs3)o2)c2ccccc21,-4,nt
CN1C(=O)C(Cc2ccccc2)NC1=S (centres undefined),11,0.3
CC1(CO)CSC(Nc2ccc(F)cc2F)=N1 (centres undefined),nt,0.3
COC(=O)C1=C(NC(=O)c2ccccc2)CCS1,14,nt
N#Cc1nn(-c2cccc(C(F)(F)F)c2)c(=O)[nH]c1=O,nt,-2.4
COc1cccc(-c2nc(-c3cccs3)c(-c3cccs3)[nH]2)c1,-11,nt
O=C(NCc1ccc(Cl)cc1)c1cc(F)c(F)c(F)c1F,-19,-3.5
O=C(COC(=O)c1ccccc1C(=O)N1CCN(c2ccc(F)cc2)CC1)NC1CC1,-2,nt
CCN=C1SC(CC(N)=O)C(=O)N1CC (centres undefined),19,nt
CCOc1ccc(-c2cc(C(=O)NCCCN3CCCCC3)c3ccccc3n2)cc1,7,-3.5
O=C(CCCc1c[nH]c2ccccc12)N1CCN(S(=O)(=O)Cc2ccccc2)CC1,-9,nt
COc1ccc(OC)c(S(=O)(=O)Oc2ccc(C#N)cc2)c1,nt,1.8
Cc1ccc(N2C(=O)CC(N3CCN(c4nc(C)cc(C)n4)CC3)C2=O)cc1 (centres undefined),7,1.5
Cc1[nH]c2ccccc2c1C(Nc1ccccn1)c1ccc(C(F)(F)F)cc1 (centres undefined),-10,1.1
O=C(N=Nc1[nH]c2ccccc2c1O)c1ccc(Cl)cc1,8,-0.2
Cc1ccccc1-c1nc2sc3c(c2c(=O)o1)CCC3,nt,-1.4
OC(COc1ccc2c(c1)OCO2)CN1CCCCCC1 (centres undefined),-16,nt
CCSC(=O)NC1CCCCC1,nt,-0.8
O=C(COC(=O)Cc1cccc(C(F)(F)F)c1)NCC1CCCO1 (centres undefined),-21,1.2
CC1CCN(S(=O)(=O)c2cc(Cl)c(Oc3ccc([N+](=O)[O-])cc3Cl)c(Cl)c2)CC1,nt,-0.3
COc1ccc(CCN(C)C(=O)C2CCCN(Cc3ccc(OC)c(OC)c3)C2)cc1OC (centres undefined),-4,-5.0
COc1cc(SC#N)ccc1N=Cc1c(O)n(-c2cccc(C)c2)c(=O)[nH]c1=O,-1,3.1
CC(=O)Nc1ccc(C(=O)OCC(=O)Nc2ccc(F)c(F)c2)cc1,-12,2.6
O=C(Nc1cccc(C(=O)N2CCOCC2)c1)c1cncc(Br)c1,4,nt
O=C(CSc1nc2ccccc2c(=O)n1Cc1ccco1)OC1CCCCC1,1,1.7
SMILES,S aureus helic,MgrA DNA FP
O=C(Nc1ccc(F)cc1)c1cc2cc(Cl)cc(Cl)c2oc1=O,8,nt
Clc1ccc2nc(N3CCCCC3)[nH]c2c1,1,-1.5
CCCNC(=O)C1CCN(Cc2nc(-c3ccc(OC)c(OC)c3)oc2C)CC1,11,nt
O=C(C1CNc2ccccc2O1)N1CCOCC1 (centres undefined),0,nt
O=C(O)CSc1ccccn1,nt,-2.4
O=c1[nH]nc(SCc2cc(Cl)cc3c2OCOC3)n1CC1CCCO1 (centres undefined),-9,nt
CC(=NCc1nnc(C)s1)c1cc2c(=O)n(C)c3ccccc3c2oc1=O,13,-0.4
O=C1CC(C(=O)Nc2cc(Cl)cc(Cl)c2)C2=C(CCCC2=O)N1 (centres undefined),-3,0.3

# These rows are one share of the data (hit frequency here may not be typical).
